Source: PubChem BioAssay (Broad Institute)
A1 apoptosis 2 – A1 inhibitors via caspase activation, primary screen, cell-based, luminescence, HTS, two replicates; MEF A1-2A-BIM cells, caspase-Glo luminescence, 3 h; percent of clofoctol response, DMSO zero; AID 2465, 2010; 24,000 tested, under 10 active; caspase activation, % (test concentration not listed); in the data active = caspase activation above about 5.9%;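 note: wells of about 30 µL received 50 nL stock; the first replicate is given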
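Test system – A1-2A-BIM-expressing MEF cells · Input – 2500 cells/well · Medium – RPMI-1640 growth medium with 10% FBS · Compound dosing – 50 nL pinned compound · Timing – 3 h compound exposure at 37 °C · Technique – Caspase-Glo luminescence (DEVD substrate) · Evaluation – Caspase-3/7 activity from luminescence increase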
* = called active by the depositor. The list is partial; the hit share may differ from the screen's.

SMILES | A1 apoptosis 2
C[C@@H]1CCCCO[C@H](CN(C)S(C)(=O)=O)[C@H](C)CN([C@@H](C)CO)C(=O)c2cc(NC(=O)Cc3ccccc3)ccc2O1 | -0.1
COc1ccc(S(=O)(=O)N(C)C[C@H]2Oc3ccc(NS(=O)(=O)c4ccccc4)cc3CC(=O)N([C@H](C)CO)C[C@H]2C)cc1 | 1.4
COc1ccc(S(=O)(=O)Nc2ccc3c(c2)C(=O)N([C@H](C)CO)C[C@H](C)[C@@H](CN(C)C(=O)NC(C)C)O3)cc1 | -1.0
C[C@H]1CN([C@@H](C)CO)C(=O)c2cccc(NC(=O)c3ccncc3)c2O[C@@H]1CN(C)Cc1ccc(Cl)c(Cl)c1 | -2.3
COc1ccc(S(=O)(=O)N(C)C[C@@H]2Oc3ccc(NC(=O)Nc4ccc(F)cc4)cc3C(=O)N([C@H](C)CO)C[C@@H]2C)cc1 | -1.0
C[C@@H]1CCCCO[C@@H](CN(C)C(=O)Nc2ccc(F)cc2)[C@H](C)CN([C@H](C)CO)C(=O)c2cc(NS(=O)(=O)c3ccccc3)ccc2O1 | 0.3
C[C@H](CO)N1C[C@H](C)[C@@H](CN(C)C(=O)c2ccccc2)OCCCC[C@H](C)Oc2ccc(NS(=O)(=O)c3ccc(F)cc3)cc2C1=O | 0.3
C[C@@H]1CN([C@@H](C)CO)C(=O)c2cccc(NC(=O)C3CCOCC3)c2O[C@H]1CN(C)Cc1ccc(C(F)(F)F)cc1 | 0.5
O=C(CCCCCCC(=O)Nc1ccccc1O)N/N=C/c1ccc(S(=O)(=O)O)o1 | 1.0
C[C@H](CO)N1C[C@H](C)[C@@H](CN(C)Cc2ccc(C(=O)O)cc2)Oc2ccc(NC(=O)NC3CCCCC3)cc2CC1=O | 0.5
C[C@H]1CN([C@@H](C)CO)C(=O)Cc2cc(NC(=O)Nc3ccc(F)cc3)ccc2O[C@H]1CN(C)S(=O)(=O)c1ccccc1 | -1.1
COc1ccc(NC(=O)N(C)C[C@@H]2Oc3ccc(NC(=O)CCC(F)(F)F)cc3C(=O)N([C@H](C)CO)C[C@@H]2C)cc1 | 0.3
C[C@H](CO)N1C[C@H](C)[C@H](CN(C)Cc2ccncc2)Oc2ccc(NS(=O)(=O)c3ccc(Cl)cc3)cc2CC1=O | -0.8
C[C@@H]1CN([C@H](C)CO)C(=O)c2cccc(NC(=O)Nc3ccc4c(c3)OCO4)c2O[C@H]1CN(C)C(=O)Nc1cccc2ccccc12 | -0.9
CNC[C@H]1Oc2c(NC(=O)C3CCCCC3)cccc2C(=O)N([C@H](C)CO)C[C@H]1C | -0.7
O=C(CCCCCCC(=O)N/N=C/c1ccccc1)NO | 0.5
C[C@H](CO)N1C[C@H](C)[C@H](CN(C)C(=O)Nc2ccc(F)cc2)Oc2ncc(-c3ccccc3)cc2C1=O | 0.5
CC(C)NC(=O)Nc1ccc2c(c1)C(=O)N([C@@H](C)CO)C[C@@H](C)[C@@H](CN(C)Cc1ccc(C(=O)O)cc1)OCCCC[C@H](C)O2 | -0.7
C[C@@H]1CN([C@@H](C)CO)C(=O)c2cc(NC(=O)CCCCCC(=O)Nc3ccccc3N)ccc2O[C@@H](C)CCCCO[C@@H]1CN(C)CC1CCCCC1 | 0.5
Cc1ccc(S(=O)(=O)Nc2ccc3c(c2)CC(=O)N([C@@H](C)CO)C[C@@H](C)[C@@H](CN(C)Cc2ccc(C(F)(F)F)cc2)O3)cc1 | -0.4

Fetched by structure from above (4):
SMILES | A1 apoptosis 2
C[C@@H]1CCCCO[C@@H](CN(C)C(=O)Nc2ccc(F)cc2)[C@H](C)CN([C@H](C)CO)C(=O)c2cc(NS(=O)(=O)c3ccccc3)ccc2O1 | 0.3
C[C@H](CO)N1C[C@H](C)[C@@H](CN(C)C(=O)c2ccccc2)OCCCC[C@H](C)Oc2ccc(NS(=O)(=O)c3ccc(F)cc3)cc2C1=O | 0.3
C[C@@H]1CN([C@H](C)CO)C(=O)c2cccc(NC(=O)Nc3ccc4c(c3)OCO4)c2O[C@H]1CN(C)C(=O)Nc1cccc2ccccc12 | -0.9
CNC[C@H]1Oc2c(NC(=O)C3CCCCC3)cccc2C(=O)N([C@H](C)CO)C[C@H]1C | -0.7

(next part)
SMILES | A1 apoptosis 2
C[C@@H]1CN([C@@H](C)CO)C(=O)Cc2cc(NC(=O)CCCN(C)C)ccc2O[C@H]1CN(C)Cc1ccc(C(=O)Nc2ccccc2N)cc1 | 0.7
C[C@@H]1CCCCO[C@@H](CN(C)S(=O)(=O)c2ccc(F)cc2)[C@H](C)CN([C@H](C)CO)C(=O)c2cc(NS(C)(=O)=O)ccc2O1 | -0.1
C[C@@H]1CN([C@H](C)CO)C(=O)c2cc(NS(=O)(=O)c3ccc(F)cc3)ccc2O[C@@H](C)CCCCO[C@H]1CN(C)S(=O)(=O)c1cccs1 | -0.6
Cc1noc(C)c1S(=O)(=O)Nc1ccc2c(c1)C(=O)N([C@H](C)CO)C[C@H](C)[C@@H](CN(C)C(=O)Nc1ccccc1)OCCCC[C@H](C)O2 | 0.5
CC(C)NC(=O)N(C)C[C@@H]1Oc2ccc(NC(=O)C3CCCCC3)cc2CC(=O)N([C@@H](C)CO)C[C@@H]1C | -1.2
O=C(NO)c1cccc(C(=O)N/N=C/c2ccccc2C(=O)O)c1 | -4.5
COc1cccc(-c2cnc3c(c2)C(=O)N([C@H](C)CO)C[C@H](C)[C@H](CN(C)S(=O)(=O)c2cccs2)O3)c1 | 1.1
C[C@@H]1CN([C@H](C)CO)C(=O)Cc2cc(NC(=O)Cc3ccccc3)ccc2O[C@@H]1CN(C)Cc1ccc(C(=O)Nc2ccccc2N)cc1 | -0.6
Cc1ccc(S(=O)(=O)Nc2ccc3c(c2)C(=O)N([C@@H](C)CO)C[C@H](C)[C@@H](CN(C)S(=O)(=O)c2ccc(Cl)cc2)O3)cc1 | -0.2
C[C@H]1CN([C@@H](C)CO)C(=O)c2cc(NC(=O)C3CC3)ccc2O[C@@H]1CN(C)Cc1ccc(C(=O)Nc2ccccc2N)cc1 | 0.8
C[C@H](CO)N1C[C@H](C)[C@H](CN(C)C(=O)Nc2ccc(F)cc2)Oc2c(NS(C)(=O)=O)cccc2C1=O | 0.6
C[C@@H]1CCCCO[C@H](CN(C)C(=O)Nc2ccc3c(c2)OCO3)[C@@H](C)CN([C@H](C)CO)C(=O)c2cc(NC(=O)Nc3ccc(F)cc3)ccc2O1 | 0.1
C[C@H](CO)N1C[C@H](C)[C@@H](CN(C)Cc2ccc3c(c2)OCO3)OCCCC[C@H](C)Oc2ccc(NS(=O)(=O)c3cn(C)cn3)cc2C1=O | 0.5
COc1ccc(CN(C)C[C@@H]2Oc3ccc(NS(=O)(=O)c4ccc(Cl)cc4)cc3C(=O)N([C@H](C)CO)C[C@@H]2C)cc1 | 0.2
C[C@H]1CN([C@@H](C)CO)C(=O)Cc2cc(NC(=O)CCCCCC(=O)Nc3ccccc3N)ccc2O[C@@H]1CN(C)C(=O)NC1CCCCC1 | 2.5
CNC[C@@H]1Oc2c(NS(=O)(=O)c3cn(C)cn3)cccc2C(=O)N([C@H](C)CO)C[C@H]1C | 0.2
CC(C)NC(=O)Nc1ccc2c(c1)CC(=O)N([C@@H](C)CO)C[C@@H](C)[C@H](CN(C)S(C)(=O)=O)O2 | 0.3
Cc1ccc(S(=O)(=O)N(C)C[C@@H]2OCCCC[C@H](C)Oc3ccc(NC(=O)c4ccccc4)cc3C(=O)N([C@H](C)CO)C[C@H]2C)cc1 | 0.7
Cc1ccc(S(=O)(=O)Nc2ccc3c(c2)C(=O)N([C@H](C)CO)C[C@H](C)[C@H](CN(C)CC2CCCCC2)OCCCC[C@H](C)O3)cc1 | 0.0
C[C@@H]1CN([C@H](C)CO)C(=O)c2cccc(NS(=O)(=O)c3cn(C)cn3)c2O[C@H]1CN(C)S(=O)(=O)c1ccc(Cl)cc1 | 0.5
O=S(=O)(NC1CCN(Cc2ccc(OCCO)cc2)CC1)c1cccc2cccnc12 | -0.4
C[C@H](CO)N1C[C@H](C)[C@@H](CN(C)C(=O)Nc2ccc(F)cc2)Oc2ccc(NC(=O)Nc3ccc(C(F)(F)F)cc3)cc2CC1=O | -0.5
C[C@H]1CN([C@@H](C)CO)C(=O)c2cc(NC(=O)C3CCCCC3)ccc2O[C@H]1CN(C)C(=O)NC1CCCCC1 | -1.4
CC(C)NC(=O)Nc1ccc2c(c1)CC(=O)N([C@H](C)CO)C[C@@H](C)[C@H](CN(C)C(=O)Nc1ccc(F)cc1)O2 | 0.4
C[C@@H]1CCCCO[C@H](CN(C)C(=O)NC2CCCCC2)[C@@H](C)CN([C@H](C)CO)C(=O)c2cc(NC(=O)c3ccncc3)ccc2O1 | 0.2
C[C@@H]1CCCCO[C@H](CN(C)S(C)(=O)=O)[C@@H](C)CN([C@H](C)CO)C(=O)c2cc(NS(=O)(=O)c3ccccc3)ccc2O1 | -0.3
C[C@H]1CN([C@@H](C)CO)C(=O)Cc2cc(NC(=O)C3CC3)ccc2O[C@H]1CN(C)C(=O)Nc1ccc(F)cc1 | -0.4
CC(C)NC(=O)N(C)C[C@@H]1Oc2ccc(NS(=O)(=O)c3cccs3)cc2CC(=O)N([C@H](C)CO)C[C@@H]1C | -0.4
C[C@@H]1CCCCO[C@H](CN(C)S(=O)(=O)c2ccc(F)cc2)[C@H](C)CN([C@H](C)CO)C(=O)c2cc(NS(=O)(=O)c3ccc(Cl)cc3)ccc2O1 | -0.2
COc1cccc(S(=O)(=O)N(C)C[C@H]2OCc3cnnn3CCCC(=O)N([C@@H](C)CO)C[C@@H]2C)c1 | 0.8
C[C@@H]1CN([C@@H](C)CO)C(=O)c2cc(NS(C)(=O)=O)ccc2O[C@@H](C)CCCCO[C@H]1CN(C)S(=O)(=O)c1cccs1 | 0.6
Cc1noc(C)c1NC(=O)N(C)C[C@H]1Oc2ccc(NC(=O)NC(C)C)cc2CC(=O)N([C@@H](C)CO)C[C@H]1C | 0.4
C[C@H](CO)N1C[C@H](C)[C@@H](CN(C)Cc2ccncc2)Oc2ccc(N(C)C)cc2C1=O | 0.6
C[C@H]1CN([C@@H](C)CO)C(=O)Cc2cc(N(C)C)ccc2O[C@@H]1CN(C)C | -0.6
CNC[C@H]1Oc2ccc(NS(=O)(=O)c3ccccc3)cc2CC(=O)N([C@@H](C)CO)C[C@@H]1C | 3.4
C[C@H](CO)N1C[C@H](C)[C@@H](CN(C)C(=O)CCC(F)(F)F)OCCCC[C@H](C)Oc2ccc(NS(C)(=O)=O)cc2C1=O | 1.5
C[C@@H]1CCCCO[C@@H](CN(C)C(=O)Nc2ccccc2)[C@@H](C)CN([C@H](C)CO)C(=O)c2cc(NS(=O)(=O)c3cn(C)cn3)ccc2O1 | -1.3
C[C@@H]1CN([C@H](C)CO)C(=O)c2cccc(NC(=O)C3CCCCC3)c2O[C@H]1CN(C)Cc1ccccc1 | -0.1
C[C@@H]1CN([C@H](C)CO)C(=O)c2cccc(NC(=O)C3CCOCC3)c2O[C@@H]1CN(C)C | 0.3
COc1ccc(NC(=O)N(C)C[C@H]2Oc3ccc(NC(=O)NC4CCCCC4)cc3CC(=O)N([C@H](C)CO)C[C@H]2C)cc1 | 2.2
C[C@@H]1CN([C@@H](C)CO)C(=O)c2cccc(NS(=O)(=O)c3ccccc3)c2O[C@H]1CN(C)C(=O)Nc1ccc(C(F)(F)F)cc1 | 0.2
C[C@H](CO)N1C[C@H](C)[C@H](CN(C)C(=O)NC2CCCCC2)Oc2ncc(-c3ccccc3)cc2C1=O | 0.3

2 entries from above, with tabs:
SMILES	A1 apoptosis 2
C[C@@H]1CN([C@@H](C)CO)C(=O)c2cccc(NS(=O)(=O)c3ccccc3)c2O[C@H]1CN(C)C(=O)Nc1ccc(C(F)(F)F)cc1	0.2
C[C@H](CO)N1C[C@H](C)[C@H](CN(C)C(=O)NC2CCCCC2)Oc2ncc(-c3ccccc3)cc2C1=O	0.3
